Measles inh = inhibitors of measles virus growth in infected cells. 0.1% of 33,000 active. infected Vero cells, GFP fluorescence, 64 h; stronger effect = lower value. z-score (concentration not given with the values);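 active = z-score under -3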;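 note: score is relative to mean and SD of the compound wells of a plate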
* = called active by the depositor. Not all compounds are listed. The share of hits here may be higher or lower than overall.

No. | compound | Measles inh
1 | COc1ccccc1N1CCN(C2CCN(Cc3ccccc3F)CC2)CC1 | -0.37
2 | Cc1ccc(-c2coc3cc4oc(=O)cc(C)c4cc23)cc1 | 0.21
3 | CS(=O)(=O)N1CCN(c2ccc([N+](=O)[O-])c(Sc3cccc4cccnc34)c2)CC1 | 1.7
4 | CSc1ccc(C2Nc3cccc4cccc(c34)N2)cc1 | -0.32
5 | COc1ccc(C2=NC(c3cccs3)NC(c3ccccc3O)C2)cc1 (stereo unspecified) | -1
6 | COc1ccc(CNCC2CCC(C(=O)O)CC2)cc1 (stereo unspecified) | -0.65
7 | O=C(CSc1nc2c(c(=O)n1-c1ccc(Cl)cc1)SCC2)Nc1ccc2c(c1)OCCO2 | -0.22
8 | O=C(NC1CCSC1=O)c1ccc(C(=O)NC2CCSC2=O)cc1 (stereo unspecified) | -0.11

No. | compound | Measles inh
9 | Cc1ccc(-n2c(SCC(=O)Nc3ccccc3C(F)(F)F)nc3[nH]ncc3c2=O)cc1Cl | -0.75
10 | Cc1cccc(NC(=O)CCS(=O)(=O)c2cc(Br)cc3c2N(C(=O)C2CC2)CC3)c1 | 0.49
11 | CN1CCN(c2ccccc2C(=O)C2c3ccccc3C(=O)N3CCc4ccccc4C23)CC1 (stereo unspecified) | 1.2
12 | Fc1ccc(Nc2nc(NCc3ccco3)c3ccccc3n2)cc1 | 0.87
13 | Cc1ccccc1NS(=O)(=O)c1ccc2c(c1)C1C=CCC1C(c1ccc(C(=O)O)cc1)N2 (stereo unspecified) | -0.43
14 | CCOC(=O)C(Cc1ccc([N+](=O)[O-])cc1)N1C(=O)c2ccccc2C1=O (stereo unspecified) | 0.44
15 | COC(=O)c1ccc(C(=O)OC)c(NC(=O)c2ccc3c(c2)OCO3)c1 | -0.12
16 | CCc1ccccc1NC(=O)C1(S(=O)(=O)c2ccc(C)cc2)CC1 | 1.2

No. | compound | Measles inh
17 | O=C1CCCC2=C1C(c1cccc(Br)c1)Nc1ccc(C(=O)c3ccccc3)cc1N2 (stereo unspecified) | -1.8
18 | COc1ccc(-n2c(=O)[nH]c3cc(C(=O)NCCc4ccccc4)ccc3c2=O)cc1OC | -0.03
19 | COc1cccc(C2C=C(c3ccc(Cl)cc3)Nc3ncnn32)c1OC (stereo unspecified) | -0.26
20 | O=C(Nc1nc(-c2cccc3ccccc23)cs1)c1ccccc1Cl | -0.85
21 | O=C(CNc1ccc2c(c1)oc1ccccc12)c1ccc([N+](=O)[O-])cc1 | -0.09
22 | CC1=C(C(=O)OCC2CCCO2)C(c2ccc(C)s2)C2=C(CC(C)(C)CC2=O)N1 (stereo unspecified) | 0.71
23 | Cc1ccnc(NC(=O)CCCCC(=O)O)c1 | -0.77
24 | CCOc1ccc2nc(NC(=O)CCNS(=O)(=O)c3cccc4nonc34)sc2c1 | -0.47

No. | compound | Measles inh
25 | COc1ccccc1NC(=O)Cn1cnc2sc(C(=O)N3CCC(C)CC3)c(C)c2c1=O | 1.8
26 | CCCCCSc1nc2n(n1)C(c1ccc(Br)cc1)C1=C(CCCC1=O)N2 (stereo unspecified) | -1.3
27 | COc1cccc2cc(C(=O)NC(C)=O)c(=Nc3cccc(C)c3)oc12 | 0.31
28 | O=C(Nc1cccc2ccccc12)c1scc2c1CCCC2 | -0.62
29 | CCSc1nc2c(c(=O)[nH]1)C(c1cccnc1)C1=C(CC(C)(C)CC1=O)N2 (stereo unspecified) | -0.61
30 | O=C(Nc1c(C(=O)N2CCOCC2)cnn1-c1ccccc1)c1ccccc1 | 0.58
31 | Cc1ccc(/C(O)=C2\C(=O)C(=O)N(c3nnc(C)s3)C2c2ccc(Br)cc2)cc1 (stereo unspecified) | -0.98
32 | c1ccc2oc(SCc3cn4ccccc4n3)nc2c1 | -0.05

No. | compound | Measles inh
33 | Cc1cc(C)c2c(N)c(C(=O)Nc3nccs3)sc2n1 | -0.3
34 | CC(=O)NC(=O)c1cc2c(ccc3ccccc32)oc1=Nc1ccc(C#N)cc1 | -0.09
35 | Cc1cccc(NC(=O)CN(c2cccc(C(F)(F)F)c2)S(=O)(=O)c2ccccc2)c1 | -0.8
36 | O=C(CSc1n[nH]c(-c2ccccc2)n1)Nc1cccc2ccccc12 | -0.44
37 | CC1(C)CC(=O)C2=C(C1)NC1=C(C(=O)c3ccccc31)C2c1cccc(F)c1 (stereo unspecified) | 1.6
38 | Cc1nc2c(C(=O)NCCC3=CCCCC3)cnn2c(C)c1Cc1ccc(F)cc1 | 0.1
39 | CCn1cc(C(=O)N(C)c2cccc(C)c2)c2cc(OC)c(OC)cc2c1=O | -0.31
40 | CC(C)=CCCC(C)N1CCCCC1 (stereo unspecified) | 0.77

No. | compound | Measles inh
41 | Cc1ccc2nc(-c3c[nH]c4ccccc34)c(NC3CCCC3)n2c1 | -1.4
42 | Clc1ccc2c(c1)C1CC(c3cccnc3)=NN1C1(CCCCC1)O2 (stereo unspecified) | 0.69
43 | Cc1c(Cl)cccc1-n1c(SCC(=O)c2ccc(Cl)cc2)nc2[nH]ncc2c1=O | -0.07
44 | O=S(=O)(c1ccc2c(c1)OCCO2)N1CCN(Cc2ccccc2)CC1 | 1
45 | Cc1ccc(NC(=O)Cn2nc(C)c3ccccc3c2=O)cc1 | 0.23
46 | CCC(=O)NCCCc1nc2ccccc2n1C | -0.27
47 | O=C(Cn1nnc(-c2ccccc2Cl)n1)Nc1ccc2c(c1)OCO2 | -1
48 | O=C1c2oc3ccccc3c(=O)c2C(c2ccc(O)cc2)N1c1nccs1 (stereo unspecified) | -0.66

No. | compound | Measles inh
49 | COc1ccc(OC)c(C(=O)CC2(O)C(=O)Nc3ccccc32)c1 (stereo unspecified) | 0.15
50 | COc1cccc2cc(-c3ccc([N+](=O)[O-])cc3)c(=O)oc12 | 1.3
51 | O=C(Nc1c(C(=O)N2CCCC2)cnn1-c1ccccc1)c1ccc(Br)cc1 | 0.58
52 | CCOC(=O)c1c(NC(=O)c2cccc(Cl)c2)sc(C(C)=O)c1C | 0.4
53 | CC1(C)CC(=O)C2=C(C1)Nc1ccccc1N(C(=O)C(F)(F)F)C2c1ccc(-c2ccccc2[N+](=O)[O-])o1 (stereo unspecified) | 0.17
54 | Cn1c(=O)c2c(nc3n(CCO)c(-c4ccc(Cl)cc4)cn23)n(C)c1=O | 0.45
55 | COc1ccc(C(=O)NCCSc2c[nH]c3ccccc23)cc1OC | 1.1
56 | CN(C)c1ccc(C(=O)N=c2sc3cc(S(C)(=O)=O)ccc3n2C)cc1 | 0.66

Looked up one by one from above:
No. | compound | Measles inh
51 | O=C(Nc1c(C(=O)N2CCCC2)cnn1-c1ccccc1)c1ccc(Br)cc1 | 0.58
50 | COc1cccc2cc(-c3ccc([N+](=O)[O-])cc3)c(=O)oc12 | 1.3
52 | CCOC(=O)c1c(NC(=O)c2cccc(Cl)c2)sc(C(C)=O)c1C | 0.4
55 | COc1ccc(C(=O)NCCSc2c[nH]c3ccccc23)cc1OC | 1.1
49 | COc1ccc(OC)c(C(=O)CC2(O)C(=O)Nc3ccccc32)c1 (stereo unspecified) | 0.15

More entries.
No. | compound | Measles inh
57 | O=C(Nc1ccc2c(c1)OCCO2)c1cc2c(=O)[nH]c3ccccc3c2s1 | -0.68
58 | CN(C)C(=O)c1c(NC(=O)c2ccccc2F)sc2c1CCCCC2 | 0.05
59 | COc1ccc2nc3sc(C(=O)Nc4ccc5c(c4)OCCO5)cc3cc2c1 | 0.46
60 | COc1ccc(-c2n[nH]c(=S)n2C)cc1 | 0.08
61 | CCCc1cc(=O)oc2cc3oc(C)c(C)c3cc12 | 0.98
62 | Fc1ccc(-n2cc(-c3ccccc3)c3c(N4CCCCC4)ncnc32)cc1 | 0.79
63 | COc1cc(C(=O)Nc2cc(-c3nc4cc(C)cc(C)c4o3)ccc2C)cc(OC)c1OC | -1.1
64 | Cc1cccc(C)c1Nc1c(-c2ccc(N(C)C)cc2)nc2cnccn12 | 0

No. | compound | Measles inh
65 | O=C(CCCCn1c(=O)[nH]c2ccccc2c1=O)NCCc1c[nH]c2ccccc12 | 0.19
66 | CCOC(=O)C1=C(N)N(c2ccc(Cl)cc2)C2=C(C(=O)CCC2)C1c1cc(Br)cs1 (stereo unspecified) | -2.6
67 | CC1=C(C(=O)Nc2ccc(C)cc2)C(c2cccs2)NC(=O)N1 (stereo unspecified) | 0.04
68 | CC(C)COC(=O)c1ccc(NC(=O)c2cccc(Cl)c2)cc1 | 1.4
69 | O=C(NC1CCCCC1)C1CCN(c2nc3ccccc3[nH]2)CC1 | -0.56
70 | Cc1ccc(Cl)cc1N1CCN(C(=O)CCn2c(=S)oc3ccccc32)CC1 | -0.71
71 | CC1=C(C(=O)OC2CCCC2C)C(c2ccccc2Cl)NC(=O)N1 (stereo unspecified) | 0.34
72 | O=C(NCc1ccc2c(c1)OCO2)c1ccc(CSCc2cccc(Cl)c2)o1 | 1

No. | compound | Measles inh
73 | O=C(Nc1ccc(NC(=O)c2ccco2)c(Cl)c1)c1cccc(F)c1 | 2.1
74 | CCOC(=O)c1sc(NC(=O)CSc2nc(=O)cc(N)n2-c2ccccc2)nc1C | -1.3
75 | O=[N+]([O-])c1c(N(CCO)CCO)cc(Cl)c2nonc12 | 1.1
76 | O=C(NCCn1ccc2ccccc21)c1ccccc1I | 1.5
77 | CC(C)(C)c1ccc(-c2nc3cc(NC(=O)Cc4ccccc4)ccc3o2)cc1 | -0.93
78 | O=c1c2ccc(Cl)cc2[nH]c(=S)n1Cc1ccc2c(c1)OCO2 | -1.4
79 | COc1ccc2nc(C)cc(N(c3ccc(Br)cc3)S(=O)(=O)c3ccc([N+](=O)[O-])cc3)c2c1 | -0.37
80 | C=CCn1c(=S)[nH]c2scc(-c3ccccc3)c2c1=O | -1.7

No. | compound | Measles inh
81 | Cc1sc2nc[nH]c(=O)c2c1S(=O)(=O)N1CCN(C)CC1 | -1.3
82 | O=C(COc1ccccc1Cl)Nc1nccs1 | 0.51
83 | COc1ccc(-c2cc(C(F)(F)F)n3ncc(C(=O)NC(C)(C)CC(C)(C)C)c3n2)cc1OC | 0.75
84 | Cc1ccc2nc(NC(=O)CSc3nnc(CNC(=O)c4cccs4)o3)sc2c1 | 1.8
85 | Fc1ccc(-c2cc3n(c2)CCn2cccc2-3)cc1 | 0.93
86 | O=C1C2C(c3ccccc3)C=CC(c3ccccc3)C2C(=O)N1Cc1ccc(F)cc1 (stereo unspecified) | -1.2
87 | Cn1c(=O)n(C)c2cc(C(=O)O)ccc21 | 0.15
88 | CCC1CCCCN1CCCNC(=O)C1CCC(=O)N1C(C)C (stereo unspecified) | -0.93

No. | compound | Measles inh
89 | COc1cc(NC(=O)c2cnn3c2NC(c2cccs2)CC3C(F)(F)F)c(OC)cc1Cl (stereo unspecified) | -0.46
90 | Cc1cccc(-c2noc(COc3ccc(C(C)C)cc3Br)n2)c1 | -0.41
91 | CCCCN(C)C(=O)c1cn(C)c2ccc(S(=O)(=O)N(CC)CC)cc2c1=O | 1
92 | O=C(CSc1nccn1-c1cccc(Cl)c1)Nc1ccc2c(c1)OCCO2 | -1.8
93 | O=C1c2ccccc2C(=O)c2c1oc1c3c(ccc21)OCN(CCC1=CCCCC1)C3 | -0.31
94 | CCc1ccccc1NC(=O)Cn1nnc(C(=O)OC)c1C(=O)OC | 0.99
95 | COc1cccc2c(=O)cc(C)[nH]c12 | 0.42
96 | Cc1ccc(-c2nnc3n2N=C(c2ccc(O)c(O)c2)CS3)cc1 | -0.32

No. | compound | Measles inh
97 | CSc1nc(C)cc(Oc2ccc(=O)[nH]n2)n1 | -0.01
98 | Cc1ccnc(NS(=O)(=O)c2ccc(NC(=O)c3cccc([N+](=O)[O-])c3)cc2)n1 | -0.66
99 | CC1=CC(C)(C)N(C(=O)CSc2ncccn2)c2ccc(C)cc21 | -0.47
100 | Cc1ccc2oc(-c3ccc(NC(=O)COc4ccc(C)c(C)c4)cc3)nc2c1 | 0.25
101 | O=C(NCCCN1CCOCC1)c1ccc2c(=O)n(C3CCCC3)c(=S)[nH]c2c1 | 0.36
102 | CCOC(=O)c1c[nH]c2ccc(I)cc2c1=O | 0.61
103 | COc1ccc(-c2cc(C(=O)NCc3ccco3)c3ccccc3n2)cc1 | -0.67
104 | Cc1cccc(NC(=O)c2cnn3c(C(F)(F)F)cc(-c4ccco4)nc23)c1C | 0.66

No. | compound | Measles inh
105 | CN1C(=O)c2ccccc2C(C(=O)NCCCN2CCc3ccccc3C2)C1c1cn(C)c2ccccc12 (stereo unspecified) | 0.31
106 | O=C(CCN1C(=O)c2cccc([N+](=O)[O-])c2C1=O)NCC1CCCO1 (stereo unspecified) | 0.35
107 | O=C(NCCSc1c(-c2ccccc2)[nH]c2ccccc12)c1ccc(S(=O)(=O)N2CCOCC2)cc1 | -1.5
108 | Cc1ccc(NC(=O)C2CC3c4ccccc4C2c2ccccc23)cc1 (stereo unspecified) | -0.68
109 | COc1ccc(Br)c(C(=O)Nc2cc(C(=O)Nc3cccc(C(C)=O)c3)ccc2N2CC3CC(C2)c2cccc(=O)n2C3)c1 (stereo unspecified) | 0.26
110 | Clc1ccccc1Cc1noc(-c2ccccc2Br)n1 | -0.03
111 | Cc1ccc(C)c(NC2=C(Cl)C(=O)N(c3cccc(C(F)(F)F)c3)C2=O)c1 | 0.11
112 | CCOC(=O)C(CC)Oc1ccc2c(=O)c(-c3ccc(Cl)cc3)c(C(F)(F)F)oc2c1 (stereo unspecified) | -0.28

No. | compound | Measles inh
113 | O=C1OC(N2CCN(C(=O)c3ccco3)CC2)c2ccccc21 (stereo unspecified) | -0.24
114 | COC(=O)c1cnn2c(C(F)(F)F)cc(C)nc12 | -0.47
115 | Cc1ccc(S(=O)(=O)NC(CC(=O)N2CCOCC2)c2ccco2)cc1 (stereo unspecified) | -0.55
116 | Cc1ccc(N2C(=O)C3CC=CCC3C2=O)c(Br)c1 (stereo unspecified) | -2.5
117 | CCOC(=O)C(C)(C)Sc1nc2c(c(=O)n1-c1ccc(OCC)cc1)SCC2 | 1.4
118 | Cn1cnnc1SCc1ccc(C(=O)O)cc1 | -0.63
119 | COc1ccc(CCNC(=O)c2ccc3c(=O)n(Cc4ccc5c(c4)OCO5)c(=O)[nH]c3c2)cc1OC | -0.23
120 | COC(=O)c1ccc2c(c1)sc(=NC(=O)c1ccc(S(=O)(=O)N(C)C)cc1)n2C | -1.6

No. | compound | Measles inh
121 | CCCCN(C)C(=O)CNC(=O)Cn1cnc2ccccc2c1=O | 2.1
122 | CCCCNC(=O)CC1SC(=NC)N(C)C1=O (stereo unspecified) | -1.3
123 | COc1ccc(-n2c(COc3ccccc3)n[nH]c2=S)cc1 | -0.16
124 | COc1ccccc1CNC(=O)CCc1nc2ccccc2n(Cc2ccc(C)cc2)c1=O | 1.1

Screening results (PubChem BioAssay)
